Bioassay records as filed in PubChem.
fixLJ activator: increases Burkholderia fixLJ two-component signaling; B. multivorans fixK-promoter GFP reporter, 18 h; stronger effect = higher value; z-score (test concentration not listed); actives 0.3% (n = 29,000);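 active = replicate mean overnight rise in green fluorescent reporter signal, 3 or more SD over negative controls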;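 note: score is relative to vehicle wells of the plate; 300 nL library stock went into each well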
Numbers without * were called inactive; & = joins results of further samples. An excerpt; the hit share may differ from the screen's.

entry | structure | fixLJ activator
1 | COc1ccc(C(NC(=O)c2ccc(OC(F)F)cc2)C2CC(O)C2)cn1 (configuration not stated) | -1.13
2 | CN(CC(=O)N1CC(O)C(Cc2cnccn2)C1)C1CCCC1 (configuration not stated) | -0.13
3 | Cc1ccc(NC(=O)Cn2c(=O)oc3cc(S(=O)(=O)N4CCCCC4)ccc32)c(C)c1 | -2.38
4 | CCCC(=O)N1CCC(c2nnc(CN3CCCC3)n2C2CC2)CC1 | -0.64
5 | COc1ccc(-n2c(=O)c3c4c(sc3n(Cc3ccccc3C)c2=O)CCCC4)c(OC)c1 | 1.16
6 | Cc1nnc(N2C(=O)c3oc4ccccc4c(=O)c3C2c2ccc(C(C)(C)C)cc2)s1 (configuration not stated) | -1.7
7 | COc1ccc(-c2ccc(CCC(=O)O)n2CC(=O)Nc2cccc(Cl)c2C)cc1 | -2.23
8 | O=C(c1ccc(F)cc1)N1CCC[C@]2(C1)CN(c1ncccn1)CCC2O (some centres not stated) | -0.36
9 | CCc1ccc(OCC(=O)Nc2cc(-c3ccc(C)cc3)no2)cc1 | -1.07
10 | CCC(C)n1c(=N)c(S(=O)(=O)c2ccc(C)cc2)cc2c(=O)n3cc(C)ccc3nc21 (configuration not stated) | 5.73*
11 | CCOC(=O)CNC(=O)c1cc2c(=O)oc3ccccc3c2s1 | 1.92
12 | COc1ccc(NC(=O)C2CCCN(S(=O)(=O)c3c(C)[nH]c(=O)[nH]c3=O)C2)cc1OC (configuration not stated) | 0.67
13 | COc1cccc(Oc2ccc(NC(=O)NCC3(CO)CCOCC3)cn2)c1 | -0.52
14 | CCCNC(=O)C1CCC(Cn2c(=O)c3sccc3n(CC(=O)NCc3cccc(OC)c3OC)c2=O)CC1 (configuration not stated) | -0.17
15 | CCOc1ccc(NC(=O)Cn2cc(C(=O)c3ccc(CC)cc3)c(=O)c3cc(C)ccc32)cc1 | -1.1
16 | COc1cccc(C(=O)Nc2ccc3nc(N4CCC(C)CC4)cc(C)c3c2)c1 | -0.63
17 | CCN1CC(C(=O)NCCc2nc(C)c3c(n2)CCCC3)CC1=O (configuration not stated) | -0.13
18 | CCOc1ccccc1NC(=O)COC(=O)c1cn(CC)c2nc(C)ccc2c1=O | -0.22
19 | O=C(c1n[nH]c(=O)c2ccccc12)N1CCc2nnc(Cc3cccnc3)n2CC1 | 0.01
20 | CS(=O)(=O)CC(O)c1cc2n(n1)CCN(CC1CCCC1)C2 (configuration not stated) | -0.82
21 | Cc1ccc(C(=O)Nc2ccccc2)cc1S(=O)(=O)Nc1ccccc1 | -1.45
22 | COc1ccc(-c2nc3ccccc3o2)cc1NC(=O)C(C)(C)Oc1ccc(Br)cc1 | -1.67
23 | COc1cccc(N2CCN(Cc3nnc(C)s3)C(C)C2=O)c1 (configuration not stated) | -1.14
24 | Cc1cc(CC2CN(C(=O)c3cn4c(C)cccc4n3)CC2O)on1 (configuration not stated) | -0.96
25 | CC(=O)NCC(=O)N1CCC2(CC1)OCCc1cc(C(=O)NC3CC3)sc12 | -1.43

Carrying on:
entry | structure | fixLJ activator
26 | COc1ccc(S(=O)(=O)Nc2ccc(O)c(Sc3nc4ccccc4s3)c2)cc1 | 1.58
27 | CCOC(=O)c1ccc2c(c1)sc1nc(-c3ccc(OCC)cc3)cn12 | -1.22
28 | CCC(=O)N1CCc2cc(S(=O)(=O)NC(C)c3ccccc3)ccc2C1 (configuration not stated) | 1.82
29 | COc1cc2c3cc1Oc1cc(ccc1O)C[C@@H]1c4c(cc(OC)c(O)c4Oc4ccc(cc4)C[C@@H]3N(C)CC2)CC[N+]1(C)C | -2.06&-1.79
30 | CN1CCCCC1C(=O)N1CCOc2c(O)cc(-c3cccc(Cl)c3)cc2C1 (configuration not stated) | -0.16
31 | O=C(c1ccc(OC(F)(F)F)cc1)N1CCCC2(CCc3cn[nH]c32)C1 (configuration not stated) | -1.94
32 | COC(=O)c1cccc(Nc2nn3c(=O)c4cc5c(cc4nc3s2)OCO5)c1 | 1.36
33 | Cc1cc2cc(NC(=O)NC3(CN4CCOCC4)CCCC3)ccc2o1 | -0.43
34 | CCOc1ccc(Br)cc1C1NC(=O)c2c(sc3c2CCN(C)C3)N1 (configuration not stated) | -1.12
35 | CCC1=C(c2ccc(C)cc2)S(=O)(=O)N=C1N1CCC(C(=O)NCc2ccccc2Cl)CC1 | -1.3
36 | CC(=O)c1ccc(NC(=O)Cn2ncc3c4ccccc4n(Cc4ccccc4)c3c2=O)cc1 | -4.19
37 | COc1ccccc1N1CCN(C(=O)c2cc(-c3ccc(F)cc3)on2)CC1 | -1.03
38 | CC(C)Cc1cc(CNC(=O)CN(C)Cc2cccnc2)on1 | 1.28
39 | Cc1cnc(C)c(N2CCC3(CC2)CC(=O)N(Cc2noc(C)n2)CCO3)n1 | -0.02
40 | CCOc1ccccc1NC(=O)c1c(NC(=O)COc2ccc(Cl)cc2)sc2c1CCCCC2 | -0.14
41 | CCC(C)NC(=O)CCSc1nc(-c2ccc(OC)cc2)cc(C(F)(F)F)n1 (configuration not stated) | 0.09
42 | CCC(=O)Nc1ccc(F)c(NC(=O)NCc2nc(CSC)no2)c1 | 0.23
43 | Cc1cc(C)c(Cn2c3ccccc3c3cnn(CC(=O)N4CCCCC4)c(=O)c32)c(C)c1 | -0.28
44 | CC(C)C(=O)N1CCn2nc(CNC(=O)NCCCC3CCOC3)cc2C1 (configuration not stated) | -1.65
45 | O=C(Nc1ccc(F)c(F)c1)C1CCCN1S(=O)(=O)c1cccc2nsnc12 (configuration not stated) | 0.25
46 | COc1ccccc1NC(=O)C1=C(C)Nc2nc(SCc3ccccc3)nn2C1c1cccs1 (configuration not stated) | 0.34
47 | CN(C)C(=O)C1CN(C(=O)CC2CC(C)(C)NC(C)(C)C2)CCO1 (configuration not stated) | -0.02
48 | Cc1c(NC(=O)C(C)(C)Oc2ccc(Cl)cc2)cccc1-c1nc2ncccc2o1 | -1.53
49 | CCSc1ncc(Cl)c(C(=O)Nc2c(C(=O)Nc3ccc(Cl)cc3)oc3ccccc23)n1 | 1.2
50 | O=C1CN(C(=O)Cc2ccc(F)cc2)C(c2ccccc2)c2cc(Br)ccc2N1 (configuration not stated) | -1.43

Remaining list, next part.
entry | structure | fixLJ activator
51 | O=C(CCc1nc2ccccc2[nH]1)Nc1ccc(CC(=O)NC2CC2)cc1 | -1.88
52 | Cc1ccn2c(Nc3ccc4c(c3)OCO4)c(-c3ccc(N(C)C)cc3)nc2c1 | -0.78
53 | CNc1c(NC(=O)c2cc(OC)cc(OC)c2)c(=O)oc2ccccc12 | -0.16
54 | CC1(C)CC(=O)c2c(oc3c(Cl)cc(NS(=O)(=O)c4ccc(Br)cc4)cc23)C1 | -0.58
55 | CC(C)(C)N1CC(C(=O)NCc2noc(-c3c(F)cccc3F)n2)CC1=O (configuration not stated) | -0.17
56 | COc1cc(/C=C/c2nc(C#N)c(NC3CCCCC3)o2)cc(OC)c1OC | -2.47
57 | CN(Cc1cc(C(C)(C)C)n[nH]1)C(=O)NCc1nc(-c2cnccn2)n[nH]1 | 0.05
58 | COc1cc(OC)cc(C(=O)Nc2cc(-c3nc4ccccc4[nH]3)ccc2C)c1 | -0.08
59 | Cc1cc(NC(=O)c2ccc(C#N)nc2)cc2sc(N)nc12 | -0.1
60 | CCc1nccn1CCC(=O)Nc1cnn(CC(=O)NC)c1 | 1.37
61 | CSc1ncc(Cl)c(C(=O)N(C)c2ccccc2)n1 | 1.22
62 | Cc1[nH]c2ccccc2c(=O)c1CCC(=O)N1CCN(CCCO)CC1 | -1.45
63 | Cn1c(=O)c(=O)n(C)c2cc(S(=O)(=O)CCC(=O)Nc3ccc(F)cc3)ccc21 | -1.27
64 | COc1cc(NC(=O)c2cc3c(s2)-c2ccccc2OC3)cc(OC)c1OC | -0.65
65 | CN(C)c1ncccc1C(=O)NC1CCCC(NC(=O)c2ccncc2Cl)C1 (configuration not stated) | -1.21
66 | CC1=C(C(=O)Nc2ccc(Cl)cc2)C(C(C)C)n2nc(SCc3cccc(C)c3)nc2N1 (configuration not stated) | -0.84
67 | COc1cccc(-c2nc3c([nH]2)CN(C(=O)c2cc(C)ccc2C)CC3)c1 | 0.27
68 | Cc1nc(C2CCCN2C(=O)CCN2Cc3ccccc3C2=O)n[nH]1 (configuration not stated) | 0.22
69 | O=C1CC2C(CCN2C(=O)c2ccccc2)N1CCCn1ccnc1 (configuration not stated) | -2.03
70 | O=c1c2sc3ccccc3c2n(Cc2ccccc2Cl)c(=O)n1Cc1ccccc1 | -1.13
71 | CCOc1ccc(S(=O)(=O)N2Cc3ccccc3CC2C(=O)Nc2ccc(NC(C)=O)cc2)cc1 (configuration not stated) | -1.58
72 | COc1ccc(NC(=O)c2c(C)oc3ccc(O)c(CN4CCCC(C)C4)c23)cc1 (configuration not stated) | -0.42
73 | Cc1cc(C)cc(Oc2c(C(F)(F)F)oc3c(CN4CCCC(C)C4)c(O)ccc3c2=O)c1 (configuration not stated) | -1.47
74 | Cc1ccccc1N1CCCN(c2c(C(=O)O)cnc3c2c(C)nn3C)CC1 | -2.79
75 | Cc1ccc2c(c1)nc(SCC(O)c1ccc(Br)cc1)n2C (configuration not stated) | -1.28

The listing continues:
entry | structure | fixLJ activator
76 | O=C(CSc1ncc(-c2ccc(Cl)cc2)[nH]1)Nc1ccccc1F | -0.02
77 | CC(=O)c1cccc(-n2c(=O)c3c4c(sc3n(Cc3cccc(C)c3)c2=O)CN(C(C)=O)CC4)c1 | 0.34
78 | Cc1c(NC(=O)c2ccnnc2)cccc1NC(=O)C1CCCC1 | -2.66
79 | C[C@@]1(O)CCOC2(CCN(C(=O)Nc3ccc(Cl)cc3)CC2)C1O (some centres not stated) | -1.65
80 | Cc1ccc(-n2c3nc(=O)n(C)c(=O)c-3cc3c(Cl)cccc32)c(C)c1 | -0.7
81 | CC1/C=C/C=C/CC/C=C/C=C/C=C/C=C/C(O[C@@H]2O[C@H](C)[C@@H](O)[C@H](N)[C@@H]2O)CC(O)C(C(=O)O)C(O)CC(=O)CC(O)C(O)CCC(O)CC(O)CC(O)CC(=O)OC(C)C(C)C1O (some centres not stated) | -1.6
82 | NC(=O)C1(C(=O)N2CC(c3cccc(O)c3)C3C2C2CCN3CC2)CC1 (configuration not stated) | -1.4
83 | Cn1cc(C(=O)N2CCN(c3ccccc3)CC2)c(=O)c2cc(S(=O)(=O)N3CCCC3)ccc21 | 1.84
84 | CCC(Sc1ncnc2sc3c(c12)CCCC3)C(=O)OC(C)C (configuration not stated) | -0.96
85 | COc1ccc(C2CC(=O)N(CC(=O)Nc3ccc(C(C)=O)cc3)c3ccccc3S2)cc1OC (configuration not stated) | 0.62
86 | CN1C(=O)c2cccc3c(S(=O)(=O)Nc4cccc(C(=O)O)c4)ccc1c23 | 0.36
87 | COc1cc(C2c3c(-c4ccccc4O)n[nH]c3C(=O)N2CCO)ccc1OCC(C)C (configuration not stated) | 0.46
88 | CCc1nccn1CCC(=O)NCc1cc(Cl)ccc1OC(C)C | -1.9
89 | O=C1c2[nH]nc(-c3ccccc3O)c2C(c2ccc(F)cc2)N1CCO (configuration not stated) | 0.49
90 | CCN(C(=O)c1ccc(C)n1C(F)F)C1CCS(=O)(=O)C1 (configuration not stated) | 1.04
91 | O=C(O)c1ccc(NCc2nc3ccccc3n2CCOc2ccccc2Cl)cc1 | 0.09
92 | O=C(C1CCCN(S(=O)(=O)c2cccc3nonc23)C1)N1CCN(c2ccccc2Cl)CC1 (configuration not stated) | -0.18
93 | Cc1ccc(-n2c3c(cc(-c4nc(-c5ccc(Cl)cc5)cs4)c2=O)C(=O)CC(C)(C)C3)cc1 | 0.23
94 | Cc1ccc(CN(Cc2ccco2)C(=O)c2ccc(OCC(C)C)cc2)cc1 | 1.74
95 | COc1ccc(S(=O)(=O)c2nnn(-c3cc(Cl)c(OC)cc3OC)c2C)cc1 | -1.04
96 | COc1ccc(C)cc1NC(=O)c1cn(C)c(=O)c2cc(OC)c(OC)cc12 | 0.3
97 | COC1CCN(C(=O)NCc2ccc(C(=O)N3CCCC3)cc2)C1 (configuration not stated) | 0.45
98 | CC1=CC(=O)c2ccccc2C1=O | -1.6
99 | Cc1ccc(C)c(C(=O)CSc2nc(-c3ccccc3)nc3c2CCCC3)c1 | -0.31
100 | Cc1ccc(C)c(NC(=O)c2oc(=O)c3ccccc3c2-c2ccccc2)c1 | -0.09

The results go on:
entry | structure | fixLJ activator
101 | COc1cc(C2CC(=O)Nc3cc4c(cc32)OCCO4)cc(OC)c1O (configuration not stated) | -0.14
102 | Cc1ccc(OCC(=O)Nc2ccc(S(=O)(=O)Nc3cc(C)nc(C)n3)cc2)c(Br)c1 | -1.17
103 | Cc1nc(CC2CCN(c3ncncc3C(=O)O)CC2)no1 | -1.07
104 | Cc1cccc(N2CCN(C(=O)CCc3c(C)nc4c(c3C)c(=O)n(C)c(=O)n4C)CC2)c1C | -1.18

Part of the list above in order of SMILES length, largest number first.
entry | structure | fixLJ activator
93 | Cc1ccc(-n2c3c(cc(-c4nc(-c5ccc(Cl)cc5)cs4)c2=O)C(=O)CC(C)(C)C3)cc1 | 0.23
104 | Cc1cccc(N2CCN(C(=O)CCc3c(C)nc4c(c3C)c(=O)n(C)c(=O)n4C)CC2)c1C | -1.18
92 | O=C(C1CCCN(S(=O)(=O)c2cccc3nonc23)C1)N1CCN(c2ccccc2Cl)CC1 (configuration not stated) | -0.18
95 | COc1ccc(S(=O)(=O)c2nnn(-c3cc(Cl)c(OC)cc3OC)c2C)cc1 | -1.04
96 | COc1ccc(C)cc1NC(=O)c1cn(C)c(=O)c2cc(OC)c(OC)cc12 | 0.3
100 | Cc1ccc(C)c(NC(=O)c2oc(=O)c3ccccc3c2-c2ccccc2)c1 | -0.09
99 | Cc1ccc(C)c(C(=O)CSc2nc(-c3ccccc3)nc3c2CCCC3)c1 | -0.31
94 | Cc1ccc(CN(Cc2ccco2)C(=O)c2ccc(OCC(C)C)cc2)cc1 | 1.74
91 | O=C(O)c1ccc(NCc2nc3ccccc3n2CCOc2ccccc2Cl)cc1 | 0.09
101 | COc1cc(C2CC(=O)Nc3cc4c(cc32)OCCO4)cc(OC)c1O (configuration not stated) | -0.14
90 | CCN(C(=O)c1ccc(C)n1C(F)F)C1CCS(=O)(=O)C1 (configuration not stated) | 1.04
88 | CCc1nccn1CCC(=O)NCc1cc(Cl)ccc1OC(C)C | -1.9
103 | Cc1nc(CC2CCN(c3ncncc3C(=O)O)CC2)no1 | -1.07
98 | CC1=CC(=O)c2ccccc2C1=O | -1.6
